HPGD block: qHTS Assay for Inhibitors of HPGD (15-Hydroxyprostaglandin Dehydrogenase). AID 894, 2007. 15-hydroxyprostaglandin dehydrogenase [NAD(+)] (Homo sapiens), P15428. Potency, µM, for the others: at the top dose activity change, negative = inhibition, most hits filed as inhibitors. 150,000 tested, 4.3% active. purified HPGD, NADH fluorescence kinetic, PGE2 substrate; active = well fitted inhibition curve with a large enough effect (not every such curve was filed as active); inconclusive = small, poorly fitted or top-dose-only effect, or another doubt; inactive = no such curve, though single readings can be large or run the other way;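 also: top concentration of the series not given in the record; plate controls included wells without enzyme; inactives centre near -10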
Target sequence (P15428 whole entry, looked up): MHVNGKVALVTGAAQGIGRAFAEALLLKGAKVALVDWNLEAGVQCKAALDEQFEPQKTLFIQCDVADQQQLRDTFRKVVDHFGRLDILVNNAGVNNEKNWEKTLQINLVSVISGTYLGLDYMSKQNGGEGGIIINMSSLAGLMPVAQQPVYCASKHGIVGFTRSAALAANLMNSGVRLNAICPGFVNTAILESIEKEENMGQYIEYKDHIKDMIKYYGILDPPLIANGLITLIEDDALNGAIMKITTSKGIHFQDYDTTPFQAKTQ
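NADH formation kinetics: reaction with 30 uM PGE2 and 1 mM NAD+ (final), 20 nM enzyme, Tris-HCl pH 8 with Tween 20, after 15 min compound preincubation at room temperature. Fluorescence change, last versus first of five reads.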
* hit, by the source's call; ? = inconclusive. % is scaled to controls: 0 for no effect and ±100 for the full control effect; potency is read from the fitted curve at half-maximal effect. The list is partial; rates above refer to the full screens.

SMILES | HPGD block
CCOC(=O)C1(C)NC(c2ccc(OC)c(OC)c2)C2C(=O)N(CC)C(=O)C21 (stereo not given) | -4%
CCCCn1c(SCc2cc(=O)n3ccsc3n2)nc2cc(C(=O)OC)ccc2c1=O | -15%
CCN1CCN(C(c2cccs2)C(C)NC(=O)c2cccnc2)CC1 (stereo not given) | -8%
COc1cc(NC(=S)NC(=O)c2ccc(C)cc2C)ccc1NC(=O)c1cccs1 | -19%
CCCCCCCC/C=C\CCCCCCCC(=O)NC(C)C(=O)O (stereo not given) | -1%
CCCCCN(C(=O)COC(=O)c1ccc(Br)o1)c1c(N)n(CCCC)c(=O)[nH]c1=O | -13%
Cc1ccc2nc(N3CC(=O)Nc4ccccc43)nc(-c3ccccc3)c2c1 | -6%
CC1=C(C(=O)Nc2ccccc2)C(c2ccco2)n2ncnc2N1 (stereo not given) | -4%
CC(C)c1ccc(NC(=O)Cn2cccc2C2=NC(c3ccccc3)CO2)cc1 (stereo not given) | -12%
COC(=O)CSc1nc(-c2ccccc2)c2c(c1C#N)CCCC2 | ?
COc1ccc(N/C(C)=C/C(=S)Nc2ccccc2)cc1 | -22%
COc1ccccc1-c1cc(C(=O)N/N=C\c2cnn(C)c2C)c2ccccc2n1 | -6%
CCN(C(=O)CSc1nc2c(cnn2-c2ccccc2)c(=O)[nH]1)C1CCS(=O)(=O)C1 (stereo not given) | -5%
O=C1CC(c2cccc(Br)c2)c2cc3c(cc2N1)CCC3 (stereo not given) | -18%
COc1ccc2[nH]c(C)c(C(=O)CN3CC(C)OC(C)C3)c2c1 (stereo not given) | -5%
COC(=O)c1ccc(COc2ccccc2[N+](=O)[O-])o1 | -29%
CCOc1ccc(/C=N/n2c(SC)nnc(C(C)(C)C)c2=O)cc1 | -1%
O=C(c1cccc(Cl)c1Cl)N1CCN(c2ccccn2)CC1 | -12%
COCCn1nnnc1CN1CCC(NC(=O)c2ccc(Br)cc2)CC1 | -11%
CC(=O)C1=C(O)C(=O)N(CC(=O)O)C1c1ccccc1Cl (stereo not given) | -20%
CCCCOC(C)n1cc(F)c(=O)[nH]c1=O (stereo not given) | 3%
CCCc1cc(=O)[nH]c(SCC(=O)N2CCN(S(=O)(=O)c3ccccc3)CC2)n1 | -6%
CCCN1CCN(CCCNC(=S)Nc2ccc(OC)cc2)CC1 | 2%
NC(=O)c1ccc([N+](=O)[O-])cc1 | -11%
C=CC(=O)N1C(=O)c2ccccc2S1(=O)=O | -10%
OC(COCc1cccs1)CN1CCN(c2ccccn2)CC1 (stereo not given) | -11%
O=C(NC1(C(F)(F)F)N=C(c2ccccc2)NC1=O)c1ccc(Cl)cc1Cl (stereo not given) | -19%
O=C(/C=C/c1cccc([N+](=O)[O-])c1)Nc1ccccc1N1CCOCC1 | -11%
CC(C)Oc1ccc(C(=O)NC2(C(F)(F)F)N=C3SCCN3C2=O)cc1 (stereo not given) | -7%
COc1ccc(C(=O)Nn2c(SCC(=O)c3ccccc3)nc3ccccc3c2=O)cc1 | -14%
COCCn1c(SCC(N)=O)nc2c(c1=O)SC(C)C2 (stereo not given) | -14%
Cc1cc(Nc2ccc(Br)c(C)c2)n2nc(C)nc2n1 | -12%
COCCn1c(=NC(=O)c2ccc(S(=O)(=O)N3CCc4ccccc4C3)cc2)sc2cc(OC)ccc21 | ?
CC(=O)Nc1ccc(OCC(O)CN2CCN(c3cc(Cl)ccc3C)CC2)cc1 (stereo not given) | -7%
Cc1nn(C)cc1C1C2=C(CC(C)(C)CC2=O)OC2=C1C(=O)CC(C)(C)C2 | -7%
COc1cccc(C2CC(c3ccccc3Cl)Nc3nc(N)nn32)c1 (stereo not given) | -6%
Cc1ccc(-n2nnnc2-c2cnc3ccc(Cl)cc3c2-c2ccccc2)cc1 | -6%
c1coc(-c2nnc3sc(Cc4cccs4)nn23)c1 | ?
CC(C)CCOP(=O)(c1ccc(N(C)C)cc1)C(O)c1ccccc1F (stereo not given) | -12%
CCOP(=O)(OCC)C(NC(=O)Nc1ccc(Cl)c(Cl)c1)c1ccccc1 (stereo not given) | -7%
Cc1cc(C)[n+](-c2ccc(F)cc2)c2[nH]c(=O)[nH]c(=O)c12 | ?
CC(C)Cc1cc(C(=O)N2N=C(C(F)F)CC2(O)C(F)F)c2ccccc2n1 (stereo not given) | -5%
O=C1OCCN1/N=C\c1ccc([N+](=O)[O-])o1 | -12%
CCCc1cc(=O)n2[nH]c(NCc3ccccc3Cl)nc2n1 | -4%
NC(=O)[C@@H]1CCCNc2c(I)cc([N+](=O)[O-])cc2C(=O)N[C@@H](Cc2ccccc2)C(=O)N[C@@H](Cc2cnc[nH]2)C(=O)N1 | -4%
COc1ccc(NC(C)=O)cc1NC(=O)CSc1nnc(-c2ccccc2)n1N | -4%
CC(C)c1nnc(NC(=O)CCC(=O)Nc2ccc(F)cc2)s1 | -12%
COC(=O)c1ccc(COc2ccc3c(C)c(C)c(=O)oc3c2)o1 | ?
COC(=O)Nc1nc(C)c(C(=O)c2ccccc2)s1 | -18%
Cc1cccc(C(=O)NCCN2CCOCC2)c1[N+](=O)[O-] | -18%
CC1=C([N+](=O)[O-])C(c2ccccc2)C2=C(N1)c1ccccc1C2=O (stereo not given) | 22µM*
CC(C)=CCCC1=CC[C@H](C(=O)O)[C@H](C(=O)O)C1 | 2%
CCCC1(C)Nc2ccccc2-c2nc3ccccc3n21 (stereo not given) | ?
CCOC(=O)c1[nH]cnc1C(=O)Nc1ccncc1 | -19%
CCOC(=O)C1CCCN(C(=O)COC(=O)c2cc(=O)c3ccccc3o2)C1 (stereo not given) | -9%
CC(=O)c1ccc(NC(=O)CSc2ccc(-c3ccc4c(c3)OCO4)nn2)cc1 | -12%
Oc1ccc(O)cc1 | 7.9µM*
CC(C)CC(C(=O)Nn1cnnc1)N1C(=O)c2ccccc2C1=O (stereo not given) | -22%
CC(C)=CC[N+]1(C)CCCCC1 | -3%
CCCCCCCCNC(=O)C(CCC(=O)OCc1ccccc1)NC(C)=O (stereo not given) | ?
(more compounds)
SMILES | HPGD block
Oc1ccccc1-c1nnc(SCCN2CCOCC2)n1Cc1ccccc1 | ?
COc1cc2cc(C(=O)Nc3ccccc3)c(N)nc2cc1OC | ?
O=C(CSc1nc(-c2cccs2)cc(C(F)(F)F)n1)Nc1cc(OCC(F)(F)C(F)F)cc([N+](=O)[O-])c1 | -5%
O=C(/C=C\c1cccs1)c1c(O)ccc2ccc(=O)oc12 | ?
C=CCC(C)(O)C#Cc1ccccc1 (stereo not given) | -11%
Cc1csc(NC(=O)CCCSc2nc3ccccc3s2)n1 | 14µM*
CC(C)NC(=O)N1CCCC2(CCN(C(=O)c3cccc(F)c3)CC2)C1 | -3%
O=C1CCC(C(=O)Nc2ccc(OC(F)F)cc2)N1 (stereo not given) | -2%
CCn1c(C(=O)N2CCc3ccccc3C2)cc2sccc21 | 3.2µM*
Cc1nc(NC(=O)CSc2nc3cccnc3n2C2CCCCC2)sc1C | -12%
Cc1cc(CN2CCN(CCC#N)CC2)c(O)c(C2(C)CCCCC2)c1 | -15%
CCNC(=S)N(Cc1c(C)noc1C)c1ccccc1 | -2%
O=C1CCC(C(=O)OC(C(=O)c2c[nH]c3ccccc23)c2ccccc2)=NN1 (stereo not given) | -19%
CC(=O)NC1CC2CCCC(C1)N2C(=O)Nc1ccc(Cl)c(C(F)(F)F)c1 (stereo not given) | -2%
Cc1nc(Nc2ccc3c(c2)OCO3)c2oc3ccccc3c2n1 | -23%
CCN(C(=O)c1coc(=O)c(Br)c1)c1ccc2c(c1)OCO2 | ?
Cc1ccc(N2C(=O)NC(C(F)(F)F)(C(F)(F)F)C3=C2CC(C)(C)CC3=O)cc1 | -4%
Cc1ccnc(SCc2cc(=O)c(OC(=O)c3ccc(S(=O)(=O)N(C)C)cc3)co2)n1 | -6%
CCOc1ccc(C(=O)NC(=S)Nc2ccccc2N2CCCCC2)cc1[N+](=O)[O-] | -19%
Cc1cccc(-n2c(SCc3cc(=O)n4ccsc4n3)nc3ccccc3c2=O)c1 | -5%
COc1ccc(-n2ncc(S(=O)(=O)c3ccccc3)c2-c2ccc(Cl)cc2)cc1 | -15%
CC(C)OCC(O)Cn1c(N2CCCC2)nc2c1c(=O)[nH]c(=O)n2C (stereo not given) | -24%
CCOCCCn1c(SC(C(=O)Nc2cc(C)ccc2C)c2ccccc2)nnc1-c1ccc(Cl)cc1 (stereo not given) | -14%
CC(=O)CC1(O)C(=O)N(Cc2ccccc2)c2ccccc21 (stereo not given) | -4%
Cc1noc(C)c1C(=O)N1CCC2(CCCN(C(=O)Nc3cccc(F)c3)C2)CC1 | -2%
c1ccc(Cc2nnc3sc(-c4ccccn4)nn23)cc1 | ?
CCOC(=O)C1=C(C(F)(F)F)Nc2ncnn2C1c1ccc(OC)c(OC)c1OC (stereo not given) | -8%
CC(=O)C(Cc1cnc(Cl)s1)(Cc1cnc(Cl)s1)C(C)=O | -17%
CCS(=O)(=O)N1CCN(c2nc(-c3ccccc3)cs2)CC1 | -9%
CCCc1cc(C(=O)NC2CCCCC2)no1 | -27%
COCCCn1c(SCC(=O)NCc2ccccc2)nc2ccccc2c1=O | -24%
CC1=NN(c2ccc(C)cc2C)C(=O)C1C(c1ccccc1O)C1C(=O)N(c2ccc(C)cc2C)N=C1C (stereo not given) | -25%
COc1ccc(C(C(=O)NC2CCCC2)N(C(=O)c2snc(-c3ccc(F)cc3)c2N)c2ccc(OC)cc2)cc1 (stereo not given) | -28%
Cc1ccc(Cl)cc1N1CCN(C(=O)COc2ccc(S(=O)(=O)NC(C)C)cc2)CC1 | -14%
CCN1C(=O)c2ccc(C(=O)NCc3ccccc3)cc2C1=O | -19%
CC1CCN(C(=O)CSc2nncn2C)CC1 | 3%
Cc1ccc(S(=O)(=O)N2CCN(C(=O)Cc3ccccc3)CC2)cc1 | -7%
CC(C)(C)OC(=O)N[C@@H](Cc1ccccc1)c1nnc(SCC(=O)O)o1 | -1%
CC(C)(C)N=Cc1cc(-c2ccccc2)sc1O | -5%
CCN(CC)S(=O)(=O)c1ccc(N2CCOCC2)c(NC(=O)C2CCCC2)c1 | -16%
CC(C)(C)n1nnc(CCc2nnn(C(C)(C)C)n2)n1 | -9%
O=S(=O)(Nc1cccc(CCc2ccccn2)c1)c1ccc2ccccc2c1 | -25%
COCCNC(=O)c1onc(CSc2ccc(C(C)C)cc2)c1C(=O)O | 16µM*
COCCNS(=O)(=O)c1ccc(C2CNC(=O)C2)cc1 (stereo not given) | -1%
Cc1ccc(N(C(=O)C2CCCC2)C2C=CS(=O)(=O)C2)cc1C (stereo not given) | -5%
O=C(c1cccn2c(=O)c3ccccc3nc12)N1CCN(c2ccccn2)CC1 | -14%
Cc1nc(NC(=S)NC(=O)COc2ccc(Cl)cc2)ccc1Br | -9%
CCc1ccc2nc(N3CCN(C)CC3)c(C#N)cc2c1 | -12%
Cc1ccc(NC(=O)Cn2cc(S(=O)(=O)c3ccc(F)cc3)c(=O)c3cc(F)ccc32)cc1 | -23%
COc1ccccc1CNC(=O)CCC(=O)Nc1nnc(C(C)C)s1 | -4%
CCCCCCCCCCCCC(O)C(=O)O (stereo not given) | -4%
CCOC(=O)N1CCC(NC(=O)c2ccc3c(Cl)c4c(nc3c2)CCCC4)CC1 | -13%
Cc1cc(C(=O)N/N=C/c2cccc(Cl)c2Cl)no1 | -6%
CC(=O)N1N=C(c2ccc(Cl)cc2)OC1c1ccc(C(C)C)cc1 (stereo not given) | -22%
O=C(Cn1cnc2ccccc21)NC(c1ccccc1)c1ccccc1 | -14%
CC(C)Sc1nc2ccccc2c(=O)[nH]1 | -17%
Cc1cc(NC(=O)c2cc3nc(C4CC4)cc(C(F)(F)F)n3n2)no1 | ?
CC(C)OC(=O)CSc1n[nH]c(-c2cccnc2)n1 | 16µM*
COc1cc(C)nc2nc(SCc3ccccc3)nn12 | -21%
C=CCNC(=O)c1ccccc1NC(=O)c1ccccc1C | -8%
Next records follow:
SMILES | HPGD block
O=[N+]([O-])c1cccc(-c2nc(Oc3ccc(Cl)cc3)c3ccccc3n2)c1 | 25µM*
O=C(Cn1cc(C(F)(F)F)ccc1=O)NC(c1ccccc1)c1ccccc1 | -10%
Cc1cccc(CSc2nnc(NC(=O)c3ccco3)s2)c1 | -22%
C[C@](N)(C(=O)O)c1ccc(-c2nn[nH]n2)cc1 | 26%
